Compound activity (PubChem BioAssay)
D2 PAM = potentiates the human D2 dopamine receptor allosterically | 0.23% of 360,000 active | potentiation, % (test concentration not listed) | AID 624464 | DiscoveRx D2 beta-arrestin cells, luminescence, 90 min; 100% = 57 uM dopamine signal | P14416; active = potentiation of 50% or more; inconclusive = 30% to 50%; inactive = 30% or less;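 also: compound concentration not given in the record; tested on top of an EC20 dose of dopamine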
Target sequence (P14416 whole entry, looked up): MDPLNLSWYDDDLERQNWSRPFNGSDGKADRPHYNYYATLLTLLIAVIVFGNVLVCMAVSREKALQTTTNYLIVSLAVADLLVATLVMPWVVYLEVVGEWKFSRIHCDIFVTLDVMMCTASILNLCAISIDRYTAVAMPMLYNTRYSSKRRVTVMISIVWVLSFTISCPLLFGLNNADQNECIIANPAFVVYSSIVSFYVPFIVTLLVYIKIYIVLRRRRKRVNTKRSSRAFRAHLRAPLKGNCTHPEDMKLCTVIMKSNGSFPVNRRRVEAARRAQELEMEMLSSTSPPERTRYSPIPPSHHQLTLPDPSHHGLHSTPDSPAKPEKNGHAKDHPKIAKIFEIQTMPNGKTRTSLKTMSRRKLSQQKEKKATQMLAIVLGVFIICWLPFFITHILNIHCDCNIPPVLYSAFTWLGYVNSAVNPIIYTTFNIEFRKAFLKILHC
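PathHunter beta-arrestin assay in DiscoveRx D2 cells. Compounds were added with an EC20 of dopamine (50 nM final) for 90 min at 37 deg C. Luminescence was read 1 h after detection reagent, with 57 uM dopamine as the EC100 control.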
Six1-Eya2 blk = inhibitors of human Six1/Eya2 interaction | Q15475+O00167 | AlphaScreen GST-Six1/His-Eya2 binding, biochemical; active compounds read low; control for the full effect not named in the record | activity change, % (no concentration beside the values) | 0.56% of 360,000 active | AID 651725; in the data active = activity change below about -65%; inconclusive = about -30% to -65%; inactive = above about -30%; also: % is scaled to controls: 0 for no effect and ±100 for the full control effect
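Homogeneous AlphaScreen proximity assay pairing GST-Six1 with His-tagged Eya2 (added as 5X mix: 250 nM and 500 nM) in 50 mM Tris pH 8.0, 300 mM NaCl, 1 mM TCEP. Glutathione donor and nickel acceptor beads; 1 h, 37 °C, dark.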
CtBP-E1A blk = CtBP/E1A binding inhibition; AlphaScreen GST-E1A/His-CtBP binding, 1536-well; active compounds read low; control for the full effect not named in the record; activity change, % (concentration not given with the values); 0.49% of 340,000 active; AID 651724; in the data active means activity change below about -65%; inconclusive means about -30% to -65%; inactive means above about -30%; also: % is scaled to controls: 0 for no effect and ±100 for the full control effect
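In 5 uL wells, 23 nL compound meets equimolar GST-E1A and His-CtBP (5X stock 125 nM each) for 2 h, 37 °C. Beads (5X, 50 ug/mL) then 1 h, 37 °C, dark.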
D2 ag = human D2 receptor agonism in beta-arrestin assay; P14416; DiscoveRx PathHunter D2 beta-arrestin, luminescence, 90 min; 100% = 57 uM dopamine signal; activation, % (no concentration beside the values); 0.084% of 360,000 active; AID 624465; in the data active = activation above about 40%; inconclusive = about 15% to 40%; inactive = below about 15%; also: compound concentration not given in the record; the text of the record calls up to 30% inactive
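DiscoveRx PathHunter D2 beta-arrestin cells (2,100/well) attached overnight, then compound-stimulated 90 min at 37 C in HBSS/10 mM HEPES/0.1% Tween-20 buffer; beta-galactosidase complementation read by luminescence after 1 h at ambient temperature. Dopamine 57 uM final (EC100) as control.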
TRPML1 ag = activates the human TRPML1 channel | Q9GZU1 | TRPML1-expressing cells, Ca2+ dye fluorescence, FDSS; host cell line not named in the record; reference of the full effect not given here | activation, % (concentration not given with the values) | 0.12% of 410,000 active; in the data active = activation above about 50%; inconclusive = about 30% to 50%; inactive = below about 30%; also: 0% is about no effect; the text of the record puts the active cut at 80%
Target sequence (Q9GZU1 whole entry, looked up): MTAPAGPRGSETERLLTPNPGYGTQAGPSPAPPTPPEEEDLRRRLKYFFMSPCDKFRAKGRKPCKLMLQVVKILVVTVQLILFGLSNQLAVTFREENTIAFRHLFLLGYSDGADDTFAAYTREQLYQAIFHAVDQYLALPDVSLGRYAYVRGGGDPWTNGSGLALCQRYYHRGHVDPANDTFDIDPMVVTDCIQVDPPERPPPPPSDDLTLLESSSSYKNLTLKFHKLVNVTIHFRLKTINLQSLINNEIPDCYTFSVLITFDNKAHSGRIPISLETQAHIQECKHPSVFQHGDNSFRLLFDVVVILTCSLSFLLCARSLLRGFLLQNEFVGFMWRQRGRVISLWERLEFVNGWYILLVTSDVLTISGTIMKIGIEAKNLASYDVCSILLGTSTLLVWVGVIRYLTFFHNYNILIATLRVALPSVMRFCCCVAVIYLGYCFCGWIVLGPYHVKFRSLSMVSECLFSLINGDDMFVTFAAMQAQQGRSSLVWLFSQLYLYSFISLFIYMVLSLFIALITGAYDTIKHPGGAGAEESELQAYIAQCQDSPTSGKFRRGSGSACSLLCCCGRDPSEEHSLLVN
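Tet-induced TRPML1-DL cells, 1,500 per well, cultured overnight, were loaded with a no-wash Ca2+ dye for 45–90 min. Calcium fluorescence was recorded on the FDSS for 110 s after compound addition, before the EC80 agonist (4 uM 54-4) was added.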
PINK1 expr mod = changes PINK1 expression | PINK1 immunofluorescence, high-content cytometry, 24 h | Potency, µM (doses to about 76.6 µM), without a hit: at the top dose activation (PINK1 increase), most hits filed as activators | 0.2% of 410,000 active | AID 624263; active = well fitted activation curve with a large enough effect; inconclusive = small, poorly fitted or top-dose-only effect; inactive = flat fitted curve, though single readings scatter; cell line not stated here;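 also: potency is read from the fitted curve at half-maximal effect; % of control where 0% means no effect; nearly all actives have a fitted effect of over 65% in size; a mitochondrial uncoupler was the plate control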
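A stable cell line was treated with compounds at 5 concentrations for 24 hours, with CCCP as control. PINK1 levels and mitochondrial localization were measured by immunofluorescence with mitochondrial, cell and nuclear markers after fixation, read by laser-scanning cytometry.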
Numbers without * were called inactive; ? = inconclusive; · = not tested or not shown; [ ] = dose if it differs, or a comment.

Below each SMILES: D2 PAM, Six1-Eya2 blk, CtBP-E1A blk, D2 ag, TRPML1 ag, PINK1 expr mod
CCCCC(=O)OCC(=O)Nc1ccc(SC(F)F)cc1
    -7, 5, 6, -0.8, -0.8, 0.4%
Cc1noc(C)c1C(=O)NCc1ccccc1Br
    0, -11, -8, -2.6, -0.3, 1.6%
Cc1c(NC(=O)CCC2CCCCC2)cc(C(=O)N2CCOCC2)cc1[N+](=O)[O-]
    -4, 8, -8, -1.8, 0.8, -0.2%
COc1ccc(C(O)c2ncc(-c3ccccc3Cl)[nH]2)cc1F (configuration not stated)
    -9, -3, 0, -3.1, -0.3, 4.2%
O=c1[nH]c(C2CCCN(S(=O)(=O)c3ccc(F)cc3)C2)nc2c1nnn2Cc1ccccc1 (configuration not stated)
    -6, -8, -3, -2.4, 0.6, ?
Cc1c(C(=O)OCCN2CCCCC2)oc2ccccc12
    -12, -2, 8, -2.3, -0.4, 3.1%
COC(=O)C(C)Sc1nc2c(c(=O)[nH]c(=O)n2C)n1CCC(C)C (configuration not stated)
    -9, -1, 7, 0.4, -1.6, -0.2%
COc1cc(/C=C(\C#N)c2nc3ccccc3[nH]2)cc(Br)c1OCc1ccccc1
    8, 12, 3, 0.2, -0.5, ?
Oc1[nH]c2ccc(Br)cc2c1N=Nc1ccc(C(F)(F)F)cn1
    -6, -6, -7, -3.7, 0.4, 3.3%
COc1ccc(Cn2c(=S)[nH]c3ccccc3c2=O)cc1
    4, 1, 2, 0.8, ·, 13%

The results go on:
Below each SMILES: D2 PAM, Six1-Eya2 blk, CtBP-E1A blk, D2 ag, TRPML1 ag, PINK1 expr mod
COc1ccccc1CN1CC(C(=O)NCc2cccnc2)CC1=O (configuration not stated)
    -12, 0, 12, -2.2, -0.4, ·
O=C(N/N=C/c1ccccc1OC(=O)c1ccc2c(c1)OCO2)c1cccc(F)c1
    -14, -9, -10, -3.4, 1.2, ?
CCNc1nc(C)c2cc(Br)c(=O)n(CC)c2n1
    0, -1, 1, -1.6, -1.5, -3.7%
COc1ccc(N2CCc3c(C)nc4c(OC)cccc4c32)cc1
    -10, 3, 5, -2.0, -0.4, 30%
COc1ccc(-c2cc(C(=O)NC3CCCC3)no2)cc1
    -1, 8, 7, 8.4, -0.6, 3.4%
O=S(=O)(c1cccc(Cn2nnc(-c3ccc(F)cc3)n2)c1)N1CCOCC1
    -19, -9, 6, 1.9, -0.3, 2.6%
O=C(Cn1cnc2ccccc21)N/N=C/c1cccnc1
    2, 18, -24, -2.3, 0.3, -2.2%
CC1CCN(C(=O)CSc2nnc(CNC(=O)c3ccc(F)cc3)o2)CC1
    -8, -1, 9, -1.2, 1.2, -2.9%
CCOC(=O)c1sc(NC(=O)C2CCCCC2)nc1C
    -18, -1, ·, -0.8, -1.2, 5.9%
O=S(=O)(NNc1ccc(Cl)nn1)c1ccc(F)cc1
    -8, 5, 4, -5.7, -0.4, -0.1%

A different layout for part of the listing above.
Structure	D2 PAM	Six1-Eya2 blk	CtBP-E1A blk	D2 ag	TRPML1 ag	PINK1 expr mod
COc1ccc(N2CCc3c(C)nc4c(OC)cccc4c32)cc1	-10	3	5	-2.0	-0.4	30%
O=C(Cn1cnc2ccccc21)N/N=C/c1cccnc1	2	18	-24	-2.3	0.3	-2.2%

More structures.
Below each SMILES: D2 PAM, Six1-Eya2 blk, CtBP-E1A blk, D2 ag, TRPML1 ag, PINK1 expr mod
CCOc1ccc2[nH]c(=O)c(CN(Cc3ccco3)C(=O)c3ccc(Br)cc3)cc2c1
    -17, -2, -5, 0.5, 2.0, 2.6%
O=C(O)C1C2C=CC(C2)C1C(=O)Nc1nccs1 (configuration not stated)
    -8, 1, 3, -0.6, 3.1, -2.3%
Cn1c(NCc2ccccc2F)nc2cc(-c3ccsc3)sc2c1=O
    -11, -4, -2, -2.4, -0.3, 5.7%
CCOc1ccc2nc(N/C(N)=N/C(=S)Nc3ccc(C)c(C)c3)nc(C)c2c1
    -10, 3, -10, -2.3, 0.4, 2.8%
Cc1ccc2nc(-c3ccc(NC(=S)NC(=O)CC(C)C)cc3)sc2c1
    18, 1, 9, -3.3, 0.4, 6.2%
Cc1ccc(-c2noc(CN(C(=O)c3cccc(Br)c3)C(C)C)n2)cc1
    -10, -1, 0, -5.9, 1.9, 6.9%
CCc1nc2ccc(C(=O)NCc3ccc4c(c3)OCO4)cn2c1N(CC)CCOC
    -1, -2, 1, 3.7, -0.2, 3.2%
CCOc1ccccc1N(CC(=O)NCCOC)C(=O)CCC(=O)Nc1ccccn1
    -5, 2, 3, 0.7, 0.5, 4.9%
COc1ccc(C2SCC(=O)N2c2ccccc2)cc1 (configuration not stated)
    -8, -10, 0, -9.5, ·, -0.8%
O=C(N/N=C/c1ccc2c(c1)OCO2)/C(=C/c1ccc2c(c1)OCO2)NC(=O)c1ccccc1
    -19, -11, -1, -1.2, 1.3, -1.7%

Next part:
Below each SMILES: D2 PAM, Six1-Eya2 blk, CtBP-E1A blk, D2 ag, TRPML1 ag, PINK1 expr mod
CSc1ccccc1NC(=O)CN(C)C(=O)CCc1c[nH]c2ccccc12
    0, 10, 23, -3.1, 1.3, 1.1%
Cc1ccccc1C(=O)Oc1cc(N)n(S(=O)(=O)c2ccccc2)n1
    2, -7, -3, 0.7, 0.4, 0.5%
CCCCC1(CC)COC(c2ccccc2)OC1 (configuration not stated)
    -5, 16, 20, 1.3, -1.4, ?
CC(C(=O)Nc1ccc2c(c1)OCCO2)N(C)Cc1c(F)cccc1Cl (configuration not stated)
    -33, -4, -2, -0.3, 3.1, 2.1%
O=C(C[n+]1cccc(C(=O)N/N=C/c2ccc(Br)cc2)c1)c1ccccc1
    -13, -8, ·, -3.9, -0.1, 1.8%
N#CCc1ccc(OC(=O)c2ccncc2)cc1
    -2, 9, -1, -0.1, 0.0, -0.9%
COc1ccccc1Nc1nc(N)nc(CN2CCOCC2)n1
    -1, -11, -3, -0.9, -0.8, -0.5%
Cc1cc(C)c2c(=O)n3c(nc2c1)C(C)NC(=O)c1cccnc1-3 (configuration not stated)
    6, 4, -6, -3.4, -0.4, -0.9%
CC1(C)CC(=O)C(C=Nc2ccccc2C(=O)O)=C(O)C1
    -3, 4, 13, -1.7, -0.5, 2.5%[38.3 µM]
CCN(CC)C(=O)[C@H]1CC(CC(=O)NC(C)(C)C)C(=O)N2CCc3c([nH]c4ccc(OC)cc34)[C@]12C (some centres not stated)
    -7, 4, -10, 1.2, 1.0, -0.5%

The list goes on.
Below each SMILES: D2 PAM, Six1-Eya2 blk, CtBP-E1A blk, D2 ag, TRPML1 ag, PINK1 expr mod
O=C(CN1C(=O)NC2(CCCCCC2)C1=O)NCc1ccc(F)cc1
    5, -3, -2, 0.2, 0.3, -0.4%
CNC(=O)COC(=O)/C=C/c1c(C)nn(-c2ccccc2)c1C
    -11, -1, -5, -8.5, -0.3, 0.9%
COc1cccc(C2c3[nH]c4ccccc4c3CCN2Cc2cccn2-c2ncccn2)c1 (configuration not stated)
    -2, -30, -20, -0.6, 1.2, 2.5%
O=S(=O)(NCCCc1ccccc1)c1ccccc1
    -9, 7, 4, -0.1, -0.4, -0.6%
O=C(c1ccc2c(c1)OCCCO2)N1CCCCC1
    2, -2, 4, -2.0, 4.3, -0.6%
CCOC(=O)C1CCCN(Cc2ccc(OCc3ccccc3)c(OC)c2)C1 (configuration not stated)
    -75, 2, ·, -3.4, -0.7, 1.2%
COc1ccc(/C=C/C(=O)OCC(=O)NC2CCCC2)cc1OC
    -4, 1, 6, 0.4, 0.2, 0.5%
O=C(Cc1ccccc1F)Nc1ccccc1-c1ccccc1
    -7, 6, 16, -2.4, -0.3, 1.0%
O=C(Nc1ccccc1Br)C1CC(=O)N(c2ccc3c4c(cccc24)CC3)C1 (configuration not stated)
    1, -6, -15, -3.2, 2.4, 6.1%
Cc1ccc(-c2cc(C(=O)N3CC(C)CC(C)C3)c3ccccc3n2)o1 (configuration not stated)
    -6, 0, 1, -2.0, -0.3, 0.3%

Another view of some results above:
molecule | D2 PAM | Six1-Eya2 blk | CtBP-E1A blk | D2 ag | TRPML1 ag | PINK1 expr mod
CCCCC1(CC)COC(c2ccccc2)OC1 (configuration not stated) | -5 | 16 | 20 | 1.3 | -1.4 | ?
CC(C(=O)Nc1ccc2c(c1)OCCO2)N(C)Cc1c(F)cccc1Cl (configuration not stated) | -33 | -4 | -2 | -0.3 | 3.1 | 2.1%
O=C(C[n+]1cccc(C(=O)N/N=C/c2ccc(Br)cc2)c1)c1ccccc1 | -13 | -8 | · | -3.9 | -0.1 | 1.8%
N#CCc1ccc(OC(=O)c2ccncc2)cc1 | -2 | 9 | -1 | -0.1 | 0.0 | -0.9%
COc1ccccc1Nc1nc(N)nc(CN2CCOCC2)n1 | -1 | -11 | -3 | -0.9 | -0.8 | -0.5%

Carrying on:
Below each SMILES: D2 PAM, Six1-Eya2 blk, CtBP-E1A blk, D2 ag, TRPML1 ag, PINK1 expr mod
Cc1ccc(C)c(NC(=O)/C(C#N)=C/c2cn(CC(=O)NCc3ccco3)c3ccccc23)c1
    10, -3, 28, -0.4, 0.4, ?
c1ccc(-c2nnnc3ccccc23)cc1
    8, 8, -3, 3.1, 0.8, 2.4%
CC[C@H](C)C1OC(=O)[C@@H](C)[C@@H](CC)NC(=O)[C@H](C)N(C)C(=O)C(C)(C)C(=O)C(C)NC(=O)[C@H](Cc2ccc(OC)cc2)N(C)C(=O)[C@H](C(C)C)N(C)C(=O)CNC(=O)[C@H](CC(C)C)N(C)C(=O)CNC1=O (some centres not stated)
    -12, 24, 28, -3.3, -0.4, ?
COc1ccc(/C=N/NC(=O)c2cccc([N+](=O)[O-])c2)cc1OC(=O)c1ccccc1
    6, -18, -19, 0.0, 1.6, 1.2%
Cc1cccc(CN2C(=O)N/C(=C/c3cc(C)n(-c4cc(C)ccn4)c3C)C2=O)c1
    -11, -21, -9, -1.7, -0.1, 0.0%

In another format: entries from further up.
COc1ccc(/C=N/NC(=O)c2cccc([N+](=O)[O-])c2)cc1OC(=O)c1ccccc1
  D2 PAM = 6
  Six1-Eya2 blk = -18
  CtBP-E1A blk = -19
  D2 ag = 0.0
  TRPML1 ag = 1.6
  PINK1 expr mod = 1.2%

Cc1cccc(CN2C(=O)N/C(=C/c3cc(C)n(-c4cc(C)ccn4)c3C)C2=O)c1
  D2 PAM = -11
  Six1-Eya2 blk = -21
  CtBP-E1A blk = -9
  D2 ag = -1.7
  TRPML1 ag = -0.1
  PINK1 expr mod = 0.0%
